Arbovirus inh: antivirals against arbovirus infection, primary screen, cell-based, full library, 10K replicate subset; inhibition, % at 10 µM; 200,000 tested, 0.37% active; arbovirus infection cell-based antiviral screen;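 active means inhibition from about 30%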;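 further: bluetongue infection of BSR cells; cell survival read as ATP light after 72 h; 0% = infected wells without compound and 100% = uninfected wells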
Mtb H37Rv: M. tuberculosis H37Rv growth inhibitors, H37Rv strain (AID 1626); M. tuberculosis H37Rv growth inhibition; higher % means a stronger effect; one-dose inhibition, % at 10 µM; IC50 in µM for titrated hits; 220,000 tested, 0.95% active;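 active means confirmed in a dose series; inconclusive means inhibition above 80% but not taken into the dose series; inactive means below 80% or under 30% at every dose of the series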;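 further: bacteria incubated seven days before Alamar blue readout; 0% = bacteria only wells and 100% = bacteria with antibiotic wells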
RecA intein inh: Mtb RecA intein splicing inhibitors, primary screen, biochemical, fluorescence, HTS. inhibition, %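 (about 9 µM by stock and volumes)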. 290,000 tested, 0.75% active. cell-free RecA intein splicing. Protein RecA (Mycobacterium tuberculosis (strain ATCC 25618 / H37Rv)), P9WHJ3; in the data active means inhibition above about 30%; inconclusive means no clear call, values can overlap the other calls;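 further: 0% = vehicle wells and 100% = reference inhibitor control wells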
Target sequence (P9WHJ3 whole entry, looked up): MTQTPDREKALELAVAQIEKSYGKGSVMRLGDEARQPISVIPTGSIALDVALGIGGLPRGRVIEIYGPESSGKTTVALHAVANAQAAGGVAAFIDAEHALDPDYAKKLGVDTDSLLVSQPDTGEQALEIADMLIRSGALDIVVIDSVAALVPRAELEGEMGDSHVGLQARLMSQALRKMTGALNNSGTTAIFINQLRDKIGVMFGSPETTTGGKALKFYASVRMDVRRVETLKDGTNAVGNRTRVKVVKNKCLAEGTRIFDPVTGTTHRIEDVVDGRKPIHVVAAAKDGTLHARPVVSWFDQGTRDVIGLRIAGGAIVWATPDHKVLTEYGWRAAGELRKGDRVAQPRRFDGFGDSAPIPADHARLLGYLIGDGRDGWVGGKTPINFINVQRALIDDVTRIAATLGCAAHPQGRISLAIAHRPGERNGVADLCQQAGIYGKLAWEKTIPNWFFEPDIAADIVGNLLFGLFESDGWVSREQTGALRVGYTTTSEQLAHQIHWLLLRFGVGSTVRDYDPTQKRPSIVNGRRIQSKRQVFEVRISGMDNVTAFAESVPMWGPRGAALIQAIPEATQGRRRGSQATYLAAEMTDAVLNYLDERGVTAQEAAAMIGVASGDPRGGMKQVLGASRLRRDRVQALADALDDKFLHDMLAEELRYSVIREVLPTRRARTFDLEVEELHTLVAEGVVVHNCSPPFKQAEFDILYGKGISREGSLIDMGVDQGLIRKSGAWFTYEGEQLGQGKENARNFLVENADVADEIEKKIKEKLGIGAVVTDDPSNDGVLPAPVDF
YopH PTP inh: YopH tyrosine phosphatase inhibitors, primary screen, biochemical, fluorescence Ex485/Em525. AID 898, 2007. YopH tyrosine phosphatase [Yersinia enterocolitica]. inhibition, %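 (about 10 µM by stock and volumes)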. 140,000 tested, 0.16% active;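 active means inhibition of 50% or more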;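 further: controls were vehicle for no effect and minimum signal wells for full effect; inactives centre near -20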
Mtb bLac sens: beta-lactam sensitization of Mtb H37Rv, H37Rv; AID 434955, 2010; 330,000 tested, 0.27% active; inhibition, % at 25 µM; M. tuberculosis H37Rv growth with meropenem, percent inhibition; hits of this screen are not shown here;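 active means about 74% or more and at least 40 points above the plate without the antibiotic, then above 30% in a dose series; inconclusive means first-round hits that could not be retested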;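 further: growth measured after seven days incubation then overnight dye step; 0% = bacteria only wells and 100% = bacteria with antibiotic; twin plates without the antibiotic show which effects depend on it; some results filed as inactive read as strong as hits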
An asterisk follows results filed as active; u = inconclusive; x = no result given. An excerpt; rates above refer to the full screens.

Sample of the layout (twelve entries):
[1] CCOC(=O)c1sc2nc(C)nc(NCc3ccc(Cl)cc3)c2c1C
[2] c1ccc2[nH]c(CSc3nccs3)nc2c1
[3] O=C(NCC(=O)N(c1cccc(F)c1)C(C(=O)NC1CCCC1)c1ccncc1)c1ccco1 (stereo not given)
[4] COC(=O)c1oc2ccccc2c1NC(=O)CN1CCCC1
[5] COc1ccc(Nc2cc(C(=O)NCCCN3CCN(C)CC3)c3ccccc3n2)cc1
[6] O=C(NCCCn1ccnc1)/C(=C\c1cccs1)NC(=O)c1cccs1
[7] COc1ccc(C(=O)CN2CCN(c3ccc(F)cc3)CC2)cc1
[8] Cc1cccc(Nc2nc(N)nc(CN3CCC(C(N)=O)CC3)n2)c1C
[9] N#CCCN(CCC#N)S(=O)(=O)c1ccc(C(=O)Nc2nnc(C3=COCCO3)o2)cc1
[10] c1ccc(COn2nnc3ccccc32)c(COn2nnc3ccccc32)c1
entry no.	1	2	3	4	5	6	7	8	9	10
RecA intein inh	2.5	-3.4	0.0	-0.4	-3.0	x	-1.4	1.1	0.7	1.9
YopH PTP inh	x	-25	x	-31	-23	x	x	1	x	-8
Mtb H37Rv	x	-7%	x	-8%	6%	-7%	x	-3%	-6%	-3%
Arbovirus inh	x	3	x	-3	-14	7	x	-3	8	1
Mtb bLac sens	-3	-32	-1	3	-7	-3	1	-6	3	2

[11] CCc1nnc(NC(=O)C2CCCN2C(=O)Nc2ccc(Cl)cc2)s1 (stereo not given)
[12] COCCNC(=S)N1CCC(NC(=O)Nc2ccc(C)cc2)CC1
entry no.	11	12
RecA intein inh	-2.9	2.7
YopH PTP inh	x	x
Mtb H37Rv	x	-3%
Arbovirus inh	x	-4
Mtb bLac sens	-2	2

The whole of this part, from the first entry:
[1] CCOC(=O)c1sc2nc(C)nc(NCc3ccc(Cl)cc3)c2c1C
[2] c1ccc2[nH]c(CSc3nccs3)nc2c1
[3] O=C(NCC(=O)N(c1cccc(F)c1)C(C(=O)NC1CCCC1)c1ccncc1)c1ccco1 (stereo not given)
[4] COC(=O)c1oc2ccccc2c1NC(=O)CN1CCCC1
[5] COc1ccc(Nc2cc(C(=O)NCCCN3CCN(C)CC3)c3ccccc3n2)cc1
[6] O=C(NCCCn1ccnc1)/C(=C\c1cccs1)NC(=O)c1cccs1
[7] COc1ccc(C(=O)CN2CCN(c3ccc(F)cc3)CC2)cc1
[8] Cc1cccc(Nc2nc(N)nc(CN3CCC(C(N)=O)CC3)n2)c1C
entry no.	1	2	3	4	5	6	7	8
RecA intein inh	2.5	-3.4	0.0	-0.4	-3.0	x	-1.4	1.1
YopH PTP inh	x	-25	x	-31	-23	x	x	1
Mtb H37Rv	x	-7%	x	-8%	6%	-7%	x	-3%
Arbovirus inh	x	3	x	-3	-14	7	x	-3
Mtb bLac sens	-3	-32	-1	3	-7	-3	1	-6

[9] N#CCCN(CCC#N)S(=O)(=O)c1ccc(C(=O)Nc2nnc(C3=COCCO3)o2)cc1
[10] c1ccc(COn2nnc3ccccc32)c(COn2nnc3ccccc32)c1
[11] CCc1nnc(NC(=O)C2CCCN2C(=O)Nc2ccc(Cl)cc2)s1 (stereo not given)
[12] COCCNC(=S)N1CCC(NC(=O)Nc2ccc(C)cc2)CC1
[13] O=C(c1cccc([N+](=O)[O-])c1)N1CCCC(C(=O)N2CCN(c3ccccc3)CC2)C1 (stereo not given)
[14] CC1(C)CC(=O)C=C(Nc2ccc(C(=O)O)cc2)C1
[15] Cc1ccc(S(=O)(=O)C2C(=O)N(C)C3(C)CC2c2ccccc2O3)cc1C (stereo not given)
[16] Cc1ccc(-c2ccc(C(=O)NCc3ccc(Cl)cc3)o2)c2ccccc12
entry no.	9	10	11	12	13	14	15	16
RecA intein inh	0.7	1.9	-2.9	2.7	0.4	-1.5	1.3	11
YopH PTP inh	x	-8	x	x	x	0	-1	-7
Mtb H37Rv	-6%	-3%	x	-3%	x	-1%	-9%	-8%
Arbovirus inh	8	1	x	-4	x	11	0	8
Mtb bLac sens	3	2	-2	2	-12	1	1	4

Ordered by molecular weight (lowest first): part of the list above.
[2] c1ccc2[nH]c(CSc3nccs3)nc2c1
[16] Cc1ccc(-c2ccc(C(=O)NCc3ccc(Cl)cc3)o2)c2ccccc12
[3] O=C(NCC(=O)N(c1cccc(F)c1)C(C(=O)NC1CCCC1)c1ccncc1)c1ccco1 (stereo not given)
entry no.	2	16	3
RecA intein inh	-3.4	11	0.0
YopH PTP inh	-25	-7	x
Mtb H37Rv	-7%	-8%	x
Arbovirus inh	3	8	x
Mtb bLac sens	-32	4	-1

Later entries
[17] O=C(OCC(=O)N1CCCc2ccccc21)c1ccc(F)c(S(=O)(=O)N2CCOCC2)c1
[18] O=C(NCCCCNC(=O)c1ccc(Cl)s1)c1ccc(Cl)s1
[19] COc1ccccc1NS(=O)(=O)c1cc(NC(=O)c2ccc3c(c2)OCCO3)ccc1C
[20] O=[N+]([O-])c1cccnc1N1CCC(c2cc(-c3cccc(C(F)(F)F)c3)n[nH]2)CC1
[21] COc1ccc(C)cc1NC(=O)CNC(c1ccccc1)c1ccc(C)cc1 (stereo not given)
[22] CN1CCN(CCc2nc3cc(NC(=O)COc4ccccc4)ccc3n2C)CC1
[23] OCC1CCCCN1C(=S)Nc1ccc(Cl)cc1Cl (stereo not given)
[24] Cc1ccc(OCc2ccc(C(=O)NN)o2)cc1C
entry no.	17	18	19	20	21	22	23	24
RecA intein inh	0.8	-1.4	11	6.8	-0.6	-6.1	-0.7	2.5
YopH PTP inh	x	-30	-34	0	x	-26	x	x
Mtb H37Rv	x	5%	11%	6.3µM*	x	x	-7%	-10%
Arbovirus inh	x	-2	19	-33	x	4	6	x
Mtb bLac sens	-9	29	-3	100	14	-5	-1	-4

[25] COc1cccc(C(=O)Nc2ccc(C(=O)c3ccccc3)cc2)c1
[26] Cc1ccc(CNC(=O)c2csc3c2CCCCC3)cc1
[27] COc1ccc(C)cc1S(=O)(=O)N(CC(=O)N1CCOCC1)c1cc(C)cc(C)c1
[28] Cc1nonc1NC(=O)CSc1nc(C2CCCCC2)nc2ccccc12
[29] Cc1ccc(NS(=O)(=O)c2ccc(-c3ccc(=O)[nH]n3)o2)cc1Cl
[30] CC(=O)N1CCN2C(=O)C1CCCC(=O)c1cc(C3CCCCC3)ccc12 (stereo not given)
[31] COc1ccc(C(=O)C2CCCN(Cc3cc(Cl)ccc3O)C2)c(OC)c1 (stereo not given)
[32] COCCNc1c(-c2ccc(OC)c(OC)c2)nc2ccc(Cl)cn12
entry no.	25	26	27	28	29	30	31	32
RecA intein inh	8.4	-0.7	-1.4	26	-1.4	0.5	9.0	-15
YopH PTP inh	x	9	x	-35	x	-54	x	x
Mtb H37Rv	x	14%	x	0%	x	-11%	x	-5%
Arbovirus inh	x	3	x	2	x	-2	x	-8
Mtb bLac sens	45	-7	-10	99	-3	-13	60	5

[33] COc1ccc(-c2nnc(SCC(=O)Nc3ccc(C)cc3)n2C)cc1
[34] CCCn1c(=O)c2c(nc3n2CCCN3Cc2ccccc2)n(C)c1=O
[35] O=C(NCc1ccccc1)C(Cc1ccccc1)N1C(=O)C2C3CCC(C3)C2C1=O (stereo not given)
[36] O=C(C1CCC(=O)N(C2CC2)C1)N1CCC(Oc2cccc(F)c2)CC1 (stereo not given)
[37] COC(=O)CCCNC(=O)c1ccc(OS(=O)(=O)c2cc([N+](=O)[O-])ccc2C)cc1
[38] CCC1(C(=O)c2ccc(Cl)cc2)C2c3ccccc3OC(=O)C21C(=O)Nc1ccccc1 (stereo not given)
[39] Cc1cc2c(N3CCCCC3C)ncnc2s1 (stereo not given)
[40] O=C(NCc1ccco1)c1ccc([N+](=O)[O-])cc1Cl
entry no.	33	34	35	36	37	38	39	40
RecA intein inh	-1.9	-0.2	-0.4	-0.4	0.9	1.4	0.2	-1.7
YopH PTP inh	-28	x	-34	x	x	-19	-59	x
Mtb H37Rv	-3%	x	-7%	x	x	-11%	4%	x
Arbovirus inh	3	x	0	x	x	19	9	x
Mtb bLac sens	1	u	12	5	-6	1	40	2

[41] COc1ccccc1C(c1nnnn1C(C)C)N1CCN(C(=O)c2ccco2)CC1 (stereo not given)
[42] O=C(c1ccc(Br)s1)N1CCCC1
[43] O=C(C[n+]1ccccc1)N/N=C/c1ccc(O)cc1
[44] Cc1cc(=O)n2nc(N3CCCC(C(=O)NCc4ccccc4Br)C3)sc2n1 (stereo not given)
[45] CCC1CCc2c(sc(NC(=O)c3cccnc3)c2C(N)=O)C1 (stereo not given)
[46] CCOc1ccccc1NC(=O)C(CC(C)C)NC(=O)C1CCCCC1 (stereo not given)
[47] Cc1c(Br)c(C(F)(F)F)nn1CC(=O)NCc1ccccc1
[48] CC(=O)NCCC(=O)Nc1cc(S(=O)(=O)N2CCCCC2)ccc1Oc1ccccc1
entry no.	41	42	43	44	45	46	47	48
RecA intein inh	0.8	-0.4	-0.7	0.2	-4.7	-0.4	0.0	0.0
YopH PTP inh	x	0	x	x	x	-3	-6	x
Mtb H37Rv	x	-11%	-8%	x	2%	-2%	5%	x
Arbovirus inh	x	10	0	x	1	-4	-8	x
Mtb bLac sens	-6	-5	-10	2	6	1	-6	-2

[49] CCC1C(=O)N=C(SCC(=O)NC2CCCCC2)NC1=O (stereo not given)
[50] COc1ccc(/C=C2/SC(=O)N(CC(O)Cn3c4ccccc4c4ccccc43)C2=O)cc1 (stereo not given)
[51] CC1CCCCN1S(=O)(=O)c1ccc(NC(=O)c2cccc(-n3cnnn3)c2)cc1 (stereo not given)
[52] COc1ccc(C(C(=O)NCc2ccccc2)N(C(=O)c2snc(C(N)=O)c2N)c2ccccc2OC)cc1OC (stereo not given)
[53] COc1ccc(NC(=O)C2CCCN(c3c4c(nc5ncnn35)CCC4)C2)cc1 (stereo not given)
[54] O=C(Nc1ccccc1N1CCOCC1)c1ccc2ccccc2c1
[55] CCc1cc(=O)oc2cc(C)cc(OC(C)C(=O)NCc3ccccn3)c12 (stereo not given)
[56] COc1cccc(-c2nn(-c3ccccc3)cc2CO)c1
entry no.	49	50	51	52	53	54	55	56
RecA intein inh	-1.7	2.1	x	-0.8	-1.2	4.1	-0.1	0.8
YopH PTP inh	x	-35	-24	x	-40	x	x	-7
Mtb H37Rv	-2%	-3%	6%	x	-2%	x	x	x
Arbovirus inh	-7	3	-2	x	-3	x	x	-6
Mtb bLac sens	58	3	-3	4	-8	12	-3	12

[57] Cc1ccccc1C(=O)c1cccn1CC(=O)NCc1ccc(Cl)cc1
[58] Cc1ccc(C(=O)Nc2ccc(N3CCOCC3)cc2N2CCOCC2)cc1
[59] CC(C)c1ccc(NC(=S)NC2CCCCCC2)cc1
[60] CC(C)[C@H](NC(=O)[C@H](Cc1ccccc1)n1c(=O)[nH]c2ccccc2c1=O)C(=O)N1CCC[C@H]1C(=O)O
[61] COc1ccc(C(=O)O)c(O)c1
[62] Cc1ccc(S(=O)(=O)N2CCCC2CNC(=O)C(=O)NCCN2CCOCC2)cc1 (stereo not given)
[63] CC(C)CNC(=O)COc1ccc2c3c(c(=O)oc2c1)CCC3
[64] O=C(COC(=O)Cn1cnc2ccccc21)NCCC1=CCCCC1
entry no.	57	58	59	60	61	62	63	64
RecA intein inh	-0.3	-2.7	18	-4.6	-1.7	-1.5	-0.3	x
YopH PTP inh	x	x	x	x	x	x	-35	-38
Mtb H37Rv	3%	x	-14%	x	-6%	x	-9%	-1%
Arbovirus inh	-6	x	3	x	x	x	1	-2
Mtb bLac sens	-2	-7	97	6	-4	0	-5	-7

[65] Cc1cc(=S)cc(C)n1CCO
[66] COc1cc(CNc2ccc3[nH]c(=O)[nH]c3c2)cc(Br)c1OCc1ccc(F)cc1
[67] CCCC[C@@H]1CNC(=O)C(=O)N1CCCc1cc(OC)c(OC)c(OC)c1
[68] CCOc1ccc(NC(=O)CN(C)c2ccc(S(=O)(=O)N3CCOCC3)cn2)cc1OCC
[69] Cc1ccccc1OCc1nnc(SCC(=O)Nc2ccc3nc(SCC(=O)NC(C)(C)C)sc3c2)n1C
[70] Cc1ccc(S(=O)(=O)Nc2cccc(-n3cnnn3)c2)cc1C
[71] CCN1CCCC1CNc1ncnc2c1[nH]c1ccc(F)cc12 (stereo not given)
[72] CCCn1nc([N+](=O)[O-])c(C(C#N)c2nc3ccccc3o2)c(Cl)c1=O (stereo not given)
[73] CN1C(=O)/C(=C\c2ccc(N3CCCCC3)o2)C(=O)NC1=S
[74] COc1ccc(Cn2c(CO)cnc2SCC(=O)Nc2cc(C)on2)cc1
entry no.	65	66	67	68	69	70	71	72	73	74
RecA intein inh	1.2	-2.7	-1.0	-1.6	-0.8	-0.6	1.3	5.1	-2.0	-2.7
YopH PTP inh	-25	x	x	0	-17	x	-53	-15	-31	x
Mtb H37Rv	-2%	x	-1%	2%	-3%	x	5%	7%	-3%	x
Arbovirus inh	5	x	x	-5	0	x	2	26	3	x
Mtb bLac sens	2	5	-12	2	46	-2	-7	9	80	3
